# NPYLR7 agonist: mosquito NPYLR7 agonism; 0.15% of 270,000 active; activation, % at 10 µM; HEK293T NPYLR7/Galpha15, GCaMP6s calcium fluorescence; AID 1259423; in the data active = activation above about 40%;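 also: 0% = vehicle and 100% = reference agonist at the receptor; some compounds past the cut are filed as inactive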
# NPYLR7 agonist max-min: also measured in NPYLR7 agonist; calls as there; activation, %; measured here: Max-Min RFU normalised activation; some inactives read as strong as hits;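 span of the calcium signal over five minutes; 0% = vehicle and 100% = native peptide agonist; compound fluorescence can raise it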
# * = called active by the depositor; & = joins results of further samples.
SMILES,NPYLR7 agonist,NPYLR7 agonist max-min
O=C(Cc1cc(-c2cc3ccccc3o2)on1)N1CCCc2ccccc21,10,14
CC(C)(C)c1ccc(C(=O)NNC(=O)c2sccc2S(=O)(=O)N2CCOCC2)cc1,2,-1
CCN1C(=O)C2(NCCc3c2c(C)n(-c2ccccc2)c3C)c2ccccc21 (stereo not drawn),8,4
CCOC(=O)c1nnn(-c2nonc2N)c1CN(CC)CC,11,1
Cn1ccc(NC(=O)c2ccccc2S(C)(=O)=O)n1,4,5
CC1(C(=O)Nc2ccc3c(c2)OCO3)CCN1C(=O)c1cccc(F)c1 (stereo not drawn),2,3
Cc1cc(S(N)(=O)=O)sc1C(=O)N(C)CC(=O)NC(C)(C)C,0,-2
CCOc1ccccc1N1CCN(C(=O)c2cc(-c3ccccc3Cl)nc3cc(C(C)(C)C)nn23)CC1,-6&19,-7&17
CC(=O)c1ccc(S(=O)(=O)NCCC(=O)Nc2ccc(NC(=O)C3CC3)cc2)cc1,-17,-17
Cc1cccc(OCC(O)CN2C(=O)NC3(CC(C)CC(C)(C)C3)C2=O)c1 (stereo not drawn),-3,25
CCOC(=O)c1sc2nc(C=Cc3ccc(C)s3)[nH]c(=O)c2c1C,-1,6
CC(C)c1ccc(/C=C/C(=O)N2CCN(c3ccc(F)cc3)CC2)cc1,-4,-6
Cc1ccc(OCc2nc(C)c(C(=O)NC3CC3)s2)cc1,-2,-3
O=C(c1ccco1)N(Cc1ccccc1Cl)CC1CC(c2ccc(Cl)cc2)=NO1 (stereo not drawn),19,17
O=C(Nc1cccc(F)c1)N1CCSC12C(=O)N(Cc1ccccc1Cl)c1ccccc12 (stereo not drawn),16,12
Cc1ccc(Cc2nc(N3CCN(Cc4ccc(F)cc4)CC3)c3c(C)nn(-c4ccc(F)cc4)c3n2)cc1,-3,3
Cn1cc(NC(=O)CN2CCC=C(CNC(=O)N3CCCC3)C2)cn1,1,14
Cc1cc(C2CCC2)nc(N(C)CC2(CO)CCOCC2)n1,3,1
NC(=O)CCSc1ccccc1NC(=O)c1cccc2c1OCO2,7,5
O=C(CN1C(=O)CS/C1=C/S(=O)(=O)c1ccc(Cl)cc1)c1ccccc1,4,2
CN(C)C(CNC(=O)C(=O)Nc1ccc(OC(F)(F)F)cc1)c1ccccc1Cl (stereo not drawn),-2,-3
N#CSc1ccc(C(=O)O)cn1,1,-2
CCCC(C)N(C)C(=O)c1csc(NC(C)=O)n1 (stereo not drawn),9,7
CC(C)CCN1CCNC(=O)C1CC(=O)NCC1(c2ccccc2)CCOCC1 (stereo not drawn),-2,-8
CC1(C)CC(=O)C=C(C(=O)N2CC[C@@H](c3ccc(F)cc3)[C@H](O)C2)O1,-3,-3
Cc1ccccc1C(=O)N1C(C(=O)N2CCCC2)COC12CCN(C(=O)C1CC1)CC2 (stereo not drawn),5,13
Cc1nc(C(C)(C)NC(=O)Nc2ccc(F)cc2F)no1,12,14
CO[C@H]1CN(C(=O)C(C)(C)c2ccccc2)CC[C@H]1N,6,4
CC(C)(C)c1cc(NC(=O)CCCOc2ccccc2)n(-c2ccccc2Cl)n1,20,17
CCC(NC(=O)Cn1nnc2ccccc2c1=O)c1ccccn1 (stereo not drawn),-3,-4
COc1ccccc1-c1cc(C(=O)N2CCN(C(C)=O)CC2)n2nc(-c3ccccc3)cc2n1,8,6
COc1cccc(NC(=O)C2CC(=O)N(N(C)c3ccccc3)C2)c1 (stereo not drawn),-5,-4
COC(=O)[C@H](NC(=O)c1ccccc1N1CCOCC1)c1ccc(O)cc1,5,2
C=CCNC(=O)c1cn(CCC)cc2c(=O)n(-c3ccccc3)nc1-2,-3,0
CCOc1ccc2nc(N3CCC(C(=O)NCCCN4CCCC4=O)CC3)nc(C)c2c1,5,5
CC(=O)Nc1nc(C(=O)N(Cc2ccc(Cl)c(Cl)c2)CC(C)(C)N(C)C)cs1,-1,-6
CC(C)c1cc(Cl)ncn1,-4,-1
Cc1ccc(S(=O)(=O)Nc2cn(C)c(=O)n2C)cc1,1,-7
Cc1cc(CN2CCCC(C(=O)Nc3ccc(-c4nc5ccccc5[nH]4)cc3)C2)n[nH]1 (stereo not drawn),6,0
CCN1C(=O)/C(=C2\SC(=S)N(NC(=O)c3ccccc3C)C2=O)c2ccccc21,-1,-2
CCCCc1ccc(C(=O)N(CC(=O)N(CCc2c[nH]c3ccccc23)Cc2ccccc2)C2CC2)cc1,-1,7
CC1=NOC(Cc2cccc(F)c2)C(=O)N1Cc1c(C)noc1C (stereo not drawn),14,5
OCC1(Cc2cccc(C(F)(F)F)c2)CCN(Cc2ccccn2)CC1,2,1
O=S(=O)(NCc1nc(CCc2ccccc2)n[nH]1)c1cccs1,11,-2
CCCNC(=O)C1(C)CCN1C(=O)Cc1ccc(C(C)(C)C)cc1 (stereo not drawn),7,3
CCC(C)NC(=O)c1cc2c(s1)CS(=O)(=O)C2 (stereo not drawn),10,8
C=C(C)CNC(=O)c1cncn1-c1ccc(-c2cc(C)cc(C)c2)cc1,-2,-4
CCN(CC)S(=O)(=O)c1ccc(NC(=O)CCl)cc1,-7,-14
COCc1cc(N2CCN(c3cccc(C(F)(F)F)c3)CC2)nc(SCc2cccc(C(=O)NC3CC3)c2)n1,7,4
COC(=O)CN1CCN(c2nc(C)c(C)s2)CC1,-1,-2
COc1ccc(-n2cc(C(=O)c3cc(F)ccc3O)cc(C#N)c2=O)cc1OC,3,2
Cc1nc(N2CCCCCCC2)ncc1C(C)NC(=O)c1c(C)noc1C (stereo not drawn),4,-1
COCCCN(Cc1nc2sc(C)c(C)c2c(=O)[nH]1)CC(O)c1ccccc1 (stereo not drawn),19,19
CCCCN(CCC(=O)N1CCN(c2ccccc2F)CC1)c1nc(Cc2cccc(OC)c2)ns1,-8,-11
Cc1ccsc1[C@@H]1CCN(C(=O)Cn2c(=O)oc3ccccc32)C[C@H]1O,-2,-5
CC(=O)Nc1ccc(S(=O)(=O)NCCC(=O)N2CCc3ccccc3C2)cc1,-7,-10
CCc1ccc(S(=O)(=O)NCCOc2ccc(-c3ccc(C)cc3)nn2)cc1,-10,-18
O=C(COc1cccc(Cl)c1)NCCCOc1cccc([N+](=O)[O-])c1,-7,-13
COc1ccccc1C(CC(=O)O)c1ccco1 (stereo not drawn),-4,-7
COc1ccc(OC)c(C(C)=NNc2nc(C)cc(=O)[nH]2)c1,4,3

# Following part:
SMILES,NPYLR7 agonist,NPYLR7 agonist max-min
COC(=O)C1=C(C)N(C)C(C)=C(C(=O)OC)C1c1cccc(C(F)(F)F)c1,-1,-2
O=C(NCCn1ncc2c(=O)n(Cc3ccccc3)cnc21)c1cc(-c2cccs2)[nH]n1,-5,-9
Cc1cc(C(=O)Nc2nc(C)c(-c3nccn3C(F)F)s2)c(C)o1,5,2
COc1ccccc1-c1ccc(N2CCCC(C(=O)Nc3ccccc3C(N)=O)C2)nn1 (stereo not drawn),-9,-13
COc1ccc2[nH]c(C(=O)O)c(CCN3C(=O)c4cccc([N+](=O)[O-])c4C3=O)c2c1,-5,-11
O=C(CSc1nc2ccccc2[nH]1)N/N=C\c1cccc(Oc2ccccc2)c1,-11,-11
Fc1ccc(-n2c(Cc3ccccc3)n[nH]c2=S)cc1,-7,-10
C=CCO[C@H]1[C@H](NC(=O)C2CC2)c2ccccc2C12CCN(C(=O)c1n[nH]c(=O)c3ccccc13)CC2,14,4
COc1ccc2cc(CN(C)CCC(=O)NC3CCCCC3)ccc2c1,3,1
CCOc1ccc(-n2nnnc2CNS(=O)(=O)c2ccc(OC)c(OC)c2)cc1,1,-2
CCOC(=O)c1nn(-c2ccc(C)cc2)c(=O)cc1NCc1ccc(OC)cc1,8,9
CCN(CCn1cccn1)Cc1nc(-c2ccccn2)no1,1&-5,-2&-6
CC(C)(O)C#Cc1ccc(C(=O)NCCC2COc3ccccc3O2)o1 (stereo not drawn),16,11
COc1cc2c(cc1CN1CCCN(C(=O)c3ccco3)CC1)OCO2,7,7
O=C(O)c1cc(-c2cccc(O)c2)nc2nc(-c3ccccc3)[nH]c12,2,0
Cc1nc(S(=O)(=O)NCCC(=O)NC(C)CCC(C)C)cn1C (stereo not drawn),11,9
C=CCn1cc(CNC(C)C2=CCCCC2)c(C)n1 (stereo not drawn),3,3
CC(=O)C(C(=O)Nc1ccc(F)cc1)C(c1ccc2ccccc2c1)C(C#N)C#N (stereo not drawn),2,-1
Cc1ccc(-c2nc(CN3CCC(=O)N(C)c4cc(F)ccc43)cs2)o1,18,16
Cc1cccc(C)c1OCc1cc(C(=O)N(C)Cc2n[nH]c3c2CCCC3)no1,14,11

# Gathered by group: those above with a tert-butyl group.
SMILES,NPYLR7 agonist,NPYLR7 agonist max-min
CC(C)(C)c1ccc(C(=O)NNC(=O)c2sccc2S(=O)(=O)N2CCOCC2)cc1,2,-1
Cc1cc(S(N)(=O)=O)sc1C(=O)N(C)CC(=O)NC(C)(C)C,0,-2
CCOc1ccccc1N1CCN(C(=O)c2cc(-c3ccccc3Cl)nc3cc(C(C)(C)C)nn23)CC1,-6&19,-7&17
CC(C)(C)c1cc(NC(=O)CCCOc2ccccc2)n(-c2ccccc2Cl)n1,20,17
CCCNC(=O)C1(C)CCN1C(=O)Cc1ccc(C(C)(C)C)cc1 (stereo not drawn),7,3

# Continuation:
SMILES,NPYLR7 agonist,NPYLR7 agonist max-min
CC(C)=CCN1CCNC(=O)C1CC(=O)N1CCN(c2ccccc2)C(=O)C1 (stereo not drawn),-1,-3
N#Cc1c(NC(=O)CCN2C(=O)c3ccccc3C2=O)sc2c1CCCC2,-1,-9
Cc1ccccc1COC1CCCN(C(=O)CCc2ccccc2)C1 (stereo not drawn),-9,0
C=C(C)Cn1c(N2CCN(Cc3cccc(Cl)c3)CC2)nc2c1c(=O)[nH]c(=O)n2C,-1,30
S=C(NCc1ccc(Cl)cc1)c1ccc2c(c1)OCO2,-3,-4
COCCn1cc(NC(=O)NCCc2ccc(F)cc2)c2ccccc21,13,8
COc1cc(N=c2scc(-c3ccccc3)n2-c2ccc(NC(=O)OC(C)(C)C)cc2)cc(OC)c1,-6,-17
COCCNC(=O)c1nnn(-c2ccccc2)c1CSc1nc(C)cc(C)n1,-1,-5
O=C(CCc1csc(NC(=O)c2ccc[nH]c2=O)n1)NCC1CCCO1 (stereo not drawn),-10,-15
CCc1nc2c(OCc3ccccc3C)cccn2c1N(C)C(=O)C(C)C,-2,0
Cc1nc(-c2coc3cc(O)ccc3c2=O)cs1,-6,-12
Cc1n[nH]c(C)c1CN(C)C(=O)C1(N2C[C@@H](C)O[C@@H](C)C2)Cc2ccccc2C1,6,2
O=C(CSCc1cc(=O)[nH]c(=O)[nH]1)Nc1ccc(Cl)cc1,3,5
Cc1c(C(=O)NCc2ccc(C(C)C)cc2)sc(=O)n1Cc1cccc(F)c1,1,-1
Fc1ccccc1Nc1nc(-c2cccc(Br)c2)nc2ccccc12,28,23
COCC(=O)N(Cc1cccc(F)c1)Cc1cc(NC(=O)c2ccccc2Cl)ccc1N(C)C,0,11
Cc1ccc(-c2nc(N3CCC(CO)CC3)ncc2-c2ccc(CO)cc2)cc1,1,0
Fc1ccc(-c2nnc(CON=Cc3ccc(Cl)c(Cl)c3)o2)cc1,26,29
COc1ccc(C(=O)N2CCN(CC(OCc3ccc(C#N)cc3)c3cccc(N4CCCC4)c3)CC2)c(OC)c1 (stereo not drawn),3,0
Cc1nc(N2CCC(C(=O)NCC3CCN(C4CCCC4)CC3)CC2)nc2ccc(C(C)C)cc12,3,-1

# Record cards, as listed above:
# `Fc1ccc(-c2nnc(CON=Cc3ccc(Cl)c(Cl)c3)o2)cc1` reads NPYLR7 agonist = 26; NPYLR7 agonist max-min = 29
# `O=C(CCc1csc(NC(=O)c2ccc[nH]c2=O)n1)NCC1CCCO1` (stereo not drawn) reads NPYLR7 agonist = -10; NPYLR7 agonist max-min = -15
# `COc1ccc(C(=O)N2CCN(CC(OCc3ccc(C#N)cc3)c3cccc(N4CCCC4)c3)CC2)c(OC)c1` (stereo not drawn) reads NPYLR7 agonist = 3; NPYLR7 agonist max-min = 0

# 2 successive compounds from above, for reference:
SMILES,NPYLR7 agonist,NPYLR7 agonist max-min
O=C(Cc1cc(-c2cc3ccccc3o2)on1)N1CCCc2ccccc21,10,14
CC(C)(C)c1ccc(C(=O)NNC(=O)c2sccc2S(=O)(=O)N2CCOCC2)cc1,2,-1

# Continued.
SMILES,NPYLR7 agonist,NPYLR7 agonist max-min
C=CCNCC(=O)N1CCc2sccc2C1COc1ccc(Cl)cc1 (stereo not drawn),23,23
CC(=O)N1c2ccccc2C(=O)OC1c1sc(Cl)c(Cl)c1Cl (stereo not drawn),1,37
Cc1nc2ccccc2nc1Cn1ccccc1=O,0,-2
CC(=O)N(C1CC(C)C(C#N)(C#N)C1(C#N)C#N)N(C)C (stereo not drawn),0,26
Cc1cc(C)cc(CSc2nnc(NC(=O)C(C)Cl)s2)c1 (stereo not drawn),29,32
C#CCn1c(=NC(=O)c2ccnn2CC)sc2cc(S(C)(=O)=O)ccc21,7,6
Cc1cn2c3c(=O)n(Cc4ccccc4)c(=O)n(C)c3nc2n1CCO,0,-1
Cc1ccc(Oc2ccc(Cl)cc2NC(=O)C2=COCCO2)cc1,-1,-2
CSc1nc(C(=O)N2CCCC(Cn3cc(C(C)(C)C)nn3)C2)cs1 (stereo not drawn),-2,-6
CCC1(c2ccccc2)NC(=O)N(CC(=O)NC2CCSc3ccccc32)C1=O (stereo not drawn),-1,0
Cc1cc(C)c2c(n1)nn1c(NC(C)c3ccccc3)cc(C)nc21 (stereo not drawn),8,12
Cc1nc(C(C)NC2CCN(S(C)(=O)=O)CC2)n[nH]1 (stereo not drawn),-6,-6
Cc1ccc(C(=O)N(C)C2CCCCC2)c(C2CCNCC2)n1,11,5
CC(=O)c1ccc(N2CCN(C(=O)CSc3ccc(F)c(F)c3)CC2)cc1,1,8
CN(Cc1ccccc1)S(=O)(=O)c1ccc(-c2nc(C#N)c(NCc3ccccc3)o2)cc1,-1,3
CC(=O)Nc1ccc(N=CC(C#N)c2nc(C3CC3)cs2)cc1 (stereo not drawn),11,10

# Screens deposited in PubChem by Fisher Drug Discovery Resource Center.

# An excerpt, so the mix of outcomes need not match the whole.
